Screening data (PubChem)
Shh pathway inh: Sonic Hedgehog pathway inhibition | Shh-LIGHT2 Gli-luciferase reporter, 30 h | inhibition, % (test concentration not listed) | 22,000 compounds, 2.1% hits | AID 2313;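 active means replicate mean of 65% or more; inconclusive means mean lower but half the replicates past it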;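 further: pathway switched on by Shh-conditioned medium diluted 1 in 25 in low serum; 100 nL library stock added to about 40 µL; 0% = median of neutral wells and 100% = positive control level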
MITF inh: MITF inhibition. TRPM1 promoter luciferase, luminescence, 24 h. inhibition, % (no concentration beside the values). 37,000 compounds, 0.28% hits;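 active means most replicates at 85% or more, or half of them and the mean; inconclusive means half reach 85% but not the mean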;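 further: human melanocyte line stably carrying TRPM1 promoter luciferase reporter; 0% = vehicle wells and 100% = a positive control; the first replicate is given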
PD-1 reverse act: reversal of PD-1 mediated T-cell inhibition | primary human CD4 T cells, PD-L1 beads, CellTiter-Glo 96 h | activation, % (no concentration beside the values) | 29,000 tested, under 10 active;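 active means replicate mean of 50% or more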;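 further: 0% = median vehicle wells and 100% = positive control; 100 nL library stock added to about 50 µL; numbers are from one replicate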
YB-1 expression: YB-1 expression inhibition; delta delta Cp (YB-1 minus CDIP) (no concentration beside the values); 30,000 compounds, 0.37% hits; U2OS, qRT-PCR YB-1 vs CDIP delta delta Cp, 16 h; hits give high values; zero = DMSO, each unit about twofold; AID 434959;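 active means delta delta Cp rounded down to an integer at or above 3, about 3 SD of DMSO wells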;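 further: higher means less YB-1 transcript or more CDIP transcript relative to DMSO; stock transfer was 100 nL into about 100 µL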
The depositor's hits bear a star; ? = inconclusive; nt = no result given. This is a subset (hit frequency here may not be typical).

SMILES	Shh pathway inh	MITF inh	PD-1 reverse act	YB-1 expression
CC(NS(=O)(=O)c1ccc(Cl)cc1)C(=O)Nc1ccc(Oc2ccccc2)cc1 (stereo not drawn)	nt	41.9	-0.4	nt
Cc1noc(C)c1NC(=O)Nc1ccc2c(c1)C(=O)N([C@@H](C)CO)C[C@@H](C)[C@@H](CN(C)C(=O)Nc1ccc(F)cc1)O2	-55.9	-14.8	0.7	0.441
COc1ccc(S(=O)(=O)N(C)C[C@H]2Oc3ccc(NC(=O)CCN4CCOCC4)cc3CC(=O)N([C@@H](C)CO)C[C@@H]2C)cc1	-1.8	-10.2	1.3	-0.106
Cc1cc([N+](=O)[O-])nn1CC(=O)NC(C)C	nt	8.9	0.3	nt
CCOc1nc2c(c(-c3ccco3)c1C#N)Cc1ccccc1-2	-14.9	15.8	0.6	-0.39
C[C@@H]1CCCCO[C@@H](CN(C)C(=O)Nc2ccc(F)cc2)[C@@H](C)CN([C@H](C)CO)C(=O)c2cc(NS(C)(=O)=O)ccc2O1	5.0	-2.5	-1.1	0.409
O=S(=O)(Nc1ccc(O)c(Sc2nc3ccccc3s2)c1)c1cccc2cccnc12	nt	49.5	-0.9	nt
C[C@H]1CN([C@@H](C)CO)C(=O)c2cccc(NC(=O)Nc3cccc4ccccc34)c2O[C@H]1CN(C)Cc1ccncc1	31.9	3.2	nt	0.228
COc1ccc(NC(=O)N(C)C[C@H]2Oc3c(NS(=O)(=O)c4ccc(F)cc4)cccc3C(=O)N([C@@H](C)CO)C[C@H]2C)cc1	-154.9	-1.4	-0.9	-0.0962
O=c1cc(CSc2nc3ccccc3[nH]2)c2ccccc2[nH]1	nt	-44.4	1.3	nt
C[C@H](CO)N1C[C@H](C)[C@H](CN(C)Cc2ccc(C(=O)O)cc2)Oc2c(NC(=O)NC3CCCCC3)cccc2C1=O	10.6	-4.2	1.2	0.883
C[C@H](CO)N1C[C@H](C)[C@@H](CN(C)C(=O)Nc2ccc(F)cc2)Oc2ccc(NC(=O)Cc3ccccc3)cc2C1=O	nt	-3.1	-0.1	-0.388
C[C@@H]1CN([C@H](C)CO)C(=O)c2cc(NC(=O)Nc3ccc(C(F)(F)F)cc3)ccc2O[C@@H]1CN(C)S(=O)(=O)c1cccs1	35.2	14.0	0.1	-0.183
C[C@H](CO)N1C[C@H](C)[C@H](CN(C)Cc2ccc3c(c2)OCO3)Oc2ccc(NC(=O)Cc3cn(C)c4ccccc34)cc2CC1=O	18.4	-3.2	1.7	0.0361
COc1ccc(S(=O)(=O)Nc2ccc3c(c2)C(=O)N([C@H](C)CO)C[C@H](C)[C@@H](CN(C)C(=O)Nc2ccccc2)O3)cc1	-13.8	3.5	0.4	-0.319
Nc1nc(SCC(=O)NCC2CCCO2)n[nH]1 (stereo not drawn)	nt	12.3	2.5	nt
Cc1ccccc1-c1nc(S(=O)(=O)c2ccc(Cl)cc2)c(NCC2CCCO2)o1 (stereo not drawn)	nt	22.5	-1.4	nt
C[C@H]1CN([C@@H](C)CO)C(=O)Cc2cc(NC(=O)Nc3ccc(F)cc3)ccc2O[C@H]1CN(C)C(=O)NC1CCCCC1	-42.5	-1.3	nt	0.338
C[C@H]1CN([C@@H](C)CO)C(=O)c2cccc(NC(=O)C3CCCCC3)c2O[C@H]1CN(C)S(=O)(=O)c1ccccc1	10.5	-0.3	-1.9	-0.488
COc1cc(C2CC(=O)c3c(O)cc(O)cc3O2)ccc1O (stereo not drawn)	-9.4	-41.5	-1.8	-0.291
COc1ccc(S(=O)(=O)N(C)C[C@@H]2Oc3ccc(NS(C)(=O)=O)cc3C(=O)N([C@@H](C)CO)C[C@@H]2C)cc1	nt	-4.4	-1.1	nt
COc1ccccc1CNC(=O)c1cnn2c(C(F)F)cc(C)nc12	nt	-12.2	-2.5	nt
CNC[C@@H]1Oc2ccc(NC(=O)NC3CCCCC3)cc2CC(=O)N([C@@H](C)CO)C[C@@H]1C	nt	-2.7	-0.3	-0.545
CC(C)c1ccccc1NC(=O)CSc1nc(-c2ccccc2)cc(=O)[nH]1	nt	8.0	1.1	nt
Cc1ccc(NC(=O)CSc2nc3ccccc3s2)cc1Cl	nt	17.9	1.6	nt
SMILES	Shh pathway inh	MITF inh	PD-1 reverse act	YB-1 expression
Cn1c(SCC(=O)Nc2ccc(Cl)cc2)nc2sc3c(c2c1=O)CCCC3	nt	9.5	2.9	nt
C[C@@H]1CN([C@@H](C)CO)C(=O)c2cccc(NC(=O)Nc3ccccc3)c2O[C@@H]1CN(C)Cc1ccc(C(=O)Nc2ccccc2N)cc1	nt	28.6	-0.4	-0.0483
C[C@H]1CN([C@@H](C)CO)C(=O)Cc2cc(NC(=O)CCN3CCOCC3)ccc2O[C@@H]1CN(C)S(=O)(=O)c1ccc(F)cc1	23.9	-11.1	-0.7	1.15
Cc1cccc(Cc2c(C)c3c(C)[nH]nc3oc2=O)c1	?	-46.1	-4.4	-0.232
C[C@H](CO)N1C[C@H](C)[C@H](CN(C)Cc2ccc(-c3ccccc3)cc2)Oc2c(NS(=O)(=O)c3ccc(Cl)cc3)cccc2C1=O	?	-1.0	1.7	-0.805
O=C(Cn1ccc([N+](=O)[O-])n1)Nc1ccc(F)c(Cl)c1	nt	-3.2	-1.3	nt
CC(C(=O)Nc1cc(Cl)ccc1Oc1ccccc1)N(c1ccccc1)S(C)(=O)=O (stereo not drawn)	nt	21.1	-3.2	nt
CN1[C@@H]2CC[C@H]1CC(OC(=O)C(CO)c1ccccc1)C2 (stereo partly drawn)	27.2	nt	nt	0.708
COc1ccc(-c2nc(SCc3ccc(OC)c([N+](=O)[O-])c3)n[nH]2)cc1	nt	12.5	0.7	nt
C[C@@H]1CN([C@H](C)CO)C(=O)c2cccc(NC(=O)NC3CCCCC3)c2O[C@H]1CN(C)S(=O)(=O)c1cccs1	-68.2	18.0	1.3	0.123
C[C@@H]1CN([C@@H](C)CO)C(=O)c2cccc(NC(=O)NC3CCCCC3)c2O[C@@H]1CN(C)C(=O)Nc1ccccc1	-26.5	2.5	-1.4	0.249
C[C@@H]1CN([C@@H](C)CO)C(=O)c2cc(NS(=O)(=O)c3cccs3)ccc2O[C@H]1CN(C)Cc1ccccc1	17.8	7.7	-0.1	-0.145
C[C@H]1CN([C@@H](C)CO)C(=O)c2cccc(NC(=O)Nc3ccc(C(F)(F)F)cc3)c2O[C@@H]1CN(C)C	-25.6	-32.2	0.0	-0.332
O=C(O)c1cc([N+](=O)[O-])ccc1NCCCc1ccccc1	38.1	-13.4	nt	-0.581
C[C@@H]1CN([C@H](C)CO)C(=O)c2cccc(NC(=O)Nc3ccc(C(F)(F)F)cc3)c2O[C@@H]1CN(C)C(=O)Nc1ccccc1	16.1	13.1	-4.0	-2.88
C[C@H]1CN([C@@H](C)CO)C(=O)c2cc(NS(=O)(=O)c3ccc(Cl)cc3)ccc2O[C@@H]1CN(C)S(=O)(=O)c1ccc(Cl)cc1	nt	3.8	nt	-0.352
C[C@H](CO)N1C[C@H](C)[C@H](CN(C)Cc2ccc(C(F)(F)F)cc2)Oc2ccc(NC(=O)C3CCCCC3)cc2CC1=O	-13.3	4.9	0.3	-0.154
C[C@@H]1CN([C@@H](C)CO)C(=O)Cc2cc(NC(=O)Nc3ccc(C(F)(F)F)cc3)ccc2O[C@@H]1CN(C)Cc1ccc(C(F)(F)F)cc1	nt	2.1	nt	-0.00708
CNC[C@H]1OCCCC[C@@H](C)Oc2ccc(NS(=O)(=O)c3cccs3)cc2C(=O)N([C@H](C)CO)C[C@@H]1C	-0.7	-8.5	2.4	0.392
CC(C)NC(=O)Nc1ccc2c(c1)CC(=O)N([C@@H](C)CO)C[C@H](C)[C@H](CN(C)S(=O)(=O)c1ccc(Cl)cc1)O2	-28.8	-0.2	-0.8	0.312
Cc1ccc(NC(=O)CN2C(=O)/C(=C\c3ccccc3)SC2=S)cc1	nt	-1.8	1.1	-1.64
O=C(Cn1nnc(-c2cc(C(F)(F)F)cc(C(F)(F)F)c2)n1)c1ccc(Cl)cc1	-19.5	-3.4	0.5	-0.75
Cc1ccc(N(CC(=O)Nc2cc(Cl)ccc2Cl)S(C)(=O)=O)cc1C	nt	13.3	-1.4	nt
Cc1noc(C)c1NC(=O)Nc1ccc2c(c1)C(=O)N([C@H](C)CO)C[C@H](C)[C@H](CN(C)C(=O)CCCN(C)C)OCCCC[C@@H](C)O2	-5.6	6.1	1.9	0.151
C[C@@H]1CCCCO[C@@H](CN(C)C)[C@@H](C)CN([C@H](C)CO)C(=O)c2cc(NS(=O)(=O)c3ccccc3)ccc2O1	-2.9	-2.0	nt	-16.5

Ordered by count of non-hydrogen atoms (high to low): some entries from above.
SMILES	Shh pathway inh	MITF inh	PD-1 reverse act	YB-1 expression
C[C@H]1CN([C@@H](C)CO)C(=O)Cc2cc(NC(=O)CCN3CCOCC3)ccc2O[C@@H]1CN(C)S(=O)(=O)c1ccc(F)cc1	23.9	-11.1	-0.7	1.15
CC(C)NC(=O)Nc1ccc2c(c1)CC(=O)N([C@@H](C)CO)C[C@H](C)[C@H](CN(C)S(=O)(=O)c1ccc(Cl)cc1)O2	-28.8	-0.2	-0.8	0.312
C[C@H]1CN([C@@H](C)CO)C(=O)c2cccc(NC(=O)Nc3ccc(C(F)(F)F)cc3)c2O[C@@H]1CN(C)C	-25.6	-32.2	0.0	-0.332
Cc1ccc(NC(=O)CN2C(=O)/C(=C\c3ccccc3)SC2=S)cc1	nt	-1.8	1.1	-1.64

(more compounds)
SMILES	Shh pathway inh	MITF inh	PD-1 reverse act	YB-1 expression
N#Cc1ccc(C2SCCCS2)cc1	-34.7	-4.4	1.2	-0.348
C[C@H]1CN([C@@H](C)CO)C(=O)c2cc(NC(=O)CCC(F)(F)F)ccc2O[C@@H]1CN(C)Cc1ccccc1	nt	12.6	nt	0.0685
COc1cc(C2C3=C(CCCC3=O)Nc3[nH]c(=O)[nH]c(=O)c32)cc(OC)c1OC (stereo not drawn)	23.2	-10.9	-0.2	0.384
CCOC(=O)C1=C(c2ccccc2)NC(=S)NC1CC (stereo not drawn)	2.4	5.7	-1.5	-0.9
C[C@@H]1CC[C@]2(C(=O)OC3OC(CO)C(OC4OC(CO)C(O)C(O)C4O)C(O)C3O)CC[C@]3(C)C(=CCC4[C@@]5(C)CC[C@H](O)[C@](C)(C(=O)O)C5CC[C@]43C)C2[C@]1(C)O (stereo partly drawn)	7.1	4.3	1.2	0.318
CNC[C@@H]1Oc2ccc(NC(=O)CCC(F)(F)F)cc2C(=O)N([C@H](C)CO)C[C@H]1C	-20.8	3.9	0.0	-0.00363
COc1ccccc1-n1cc(C(=O)NCC(=O)NCC2COc3ccccc3O2)c2ccccc2c1=O (stereo not drawn)	43.1	-9.8	-0.6	-0.0677
COc1ccc(C(C)(C)C)cc1NC(=S)Nc1ccc(S(=O)(=O)Nc2ncccn2)cc1	nt	-3.0	-3.6	nt
O=C1N=C(c2ccccc2)S/C1=C\c1cccs1	12.9	3.1	-4.6	0.132
CC(=O)Oc1ccc2occ(C(=O)CCN(C)C)c2c1	20.6	-0.2	-4.7	-0.121
CCOC(=O)c1ccc(N=C(N)SCc2ccc(Cl)cc2)cc1	-27.0	-50.3	1.0	-0.383
CC1(NC(=S)Nc2ccc(O)cc2)CCS(=O)(=O)C1 (stereo not drawn)	nt	11.7	-0.4	0.588
C[C@@H]1CN([C@H](C)CO)C(=O)c2cc(NS(=O)(=O)c3ccc(F)cc3)ccc2O[C@H]1CN(C)S(=O)(=O)c1cccs1	nt	-10.7	0.1	0.0933
CC(=O)c1cn(CC(=O)NCC2CCCO2)c2ccccc12 (stereo not drawn)	nt	13.7	3.3	nt
Cc1cccc(C(=O)O)c1NC(=O)C(C)Oc1ccc(Cl)cc1Cl (stereo not drawn)	nt	-15.9	1.9	nt
COc1ccc(S(=O)(=O)Nc2cccc3c2O[C@@H](CN(C)Cc2ccc(Cl)c(Cl)c2)[C@@H](C)CN([C@H](C)CO)C3=O)cc1	114.9*	45.7	-3.4	0.0385
COc1ccc(NC(=O)N(C)C[C@H]2Oc3ccc(NS(=O)(=O)c4cn(C)cn4)cc3CC(=O)N([C@H](C)CO)C[C@H]2C)cc1	23.3	-9.1	1.3	-0.181
COc1ccc(OC)c(S(=O)(=O)N(C)CC(=O)Nc2ccc(F)cc2)c1	nt	-3.6	1.9	nt
Cc1cc(C(=O)Nc2cccc3c2O[C@H](CN(C)C(=O)Nc2ccc4c(c2)OCO4)[C@H](C)CN([C@@H](C)CO)C3=O)n(C)n1	-43.9	-2.9	nt	-0.0551
CC1=CC(C)C2COC(c3ccccc3OCc3ccccc3)C1C2C (stereo not drawn)	-23.6	15.2	7.5	0.068
c1cncc(-c2nc3c4c5c(sc4ncn3n2)CCCC5)c1	2.9	12.2	1.1	-0.175
C[C@H]1CN([C@@H](C)CO)C(=O)Cc2cc(NC(=O)CCCN(C)C)ccc2O[C@H]1CN(C)CC1CCCCC1	-12.7	-4.2	0.7	0.359
Cc1ccc2oc(-c3cc(NC(=O)c4ncn[nH]4)ccc3O)nc2c1	nt	-8.4	0.4	nt
C[C@@H]1CCCCO[C@@H](CN(C)C)[C@@H](C)CN([C@H](C)CO)C(=O)c2cc(NC(=O)Nc3ccccc3)ccc2O1	-8.0	-1.0	0.3	0.0243
CCCCCN=C(N)N/N=C/c1c[nH]c2ccc(OC)cc12	-26.2	-8.9	nt	-0.183
COc1ccc(N(CC(=O)O)S(C)(=O)=O)cc1	nt	-1.5	1.5	nt
